Bioassay records deposited in PubChem by several laboratories.
PABP FP inh = blocks human PABP binding to poly(A) RNA; P11940; fluorescence polarization; inhibition, % at 35 µM; 290,000 tested, 1% active;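 active = 50% or more with normal probe brightness, or confirmed in later tests; inconclusive = above 50% with abnormal brightness, or retests that disagree; inactive = below 50% or failed in later tests; about a fifth of its hits are not listed in these tables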;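 note: calls also rest on retests at 20 µM and on dose response follow-up; controls were probe without protein and protein plus probe with vehicle; some compounds called inactive have numbers as strong as hits; many hits fall short of the cut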
HIV Env fusion = inhibitors of HIV Env-mediated cell fusion; HeLa-JRFL Env/CEM21 cell fusion, luciferase; inhibition, % at 12.3 µM; 360,000 tested, 1.1% active; AID 651610;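 active = mean replicate inhibition score of at least 50 and every replicate individually at or above 50; inconclusive = only one of the two criteria met; inactive = mean below 50 and not all replicates reaching 50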;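 note: 0% = plate neutral controls and 100% = maraviroc near 300 nM; one replicate is shown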
CSC inhib = blocks cancer stem cells. cancer stem cell-like cells viability, luminescence. inhibition, % at 7.5 µM. AID 2717. 300,000 tested, 1.1% active;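 active = mean at 75% or more and at least half the replicates too; inconclusive = mean and replicates disagree; tested in HMLE shEcad cells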;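 note: 0% = median of negative and 100% = median of positive control wells; the first replicate is given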
eIF4H inh = inhibitors of RNA binding by human eIF4H; Q15056; eIF4H fluorescence polarization binding assay; inhibition, % at 35 µM; 290,000 tested, 0.94% active; AID 2012;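 active = 50% or more with normal probe brightness, or confirmed in later tests; inconclusive = above 50% with abnormal brightness, or retests that disagree; inactive = below 50% or failed in later tests; about a fifth of its hits are not listed in these tables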;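 note: calls also rest on retests at 20 µM and on dose response follow-up; 0% = protein and probe with vehicle and 100% = probe without protein; strong numbers were not always called active; many hits fall short of the cut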
Yeast UUG start = yeast start codon fidelity modulation. S. cerevisiae UUG-firefly luciferase reporter, luminescence/redox ratio. activity score, % at 18.7 µM. 350,000 tested, 0.13% active;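 active = replicate mean at a twofold rise or more, about +100% in these data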;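 note: firefly luciferase made from a UUG start codon reports start codon fidelity; reporter light over untreated wells divided by growth signal over untreated wells; some hits fall short of that in this replicate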
MT1-MMP act inh = inhibitors of human MT1-MMP activation; P50281; HT1080 RFP-PRO-GFP cells, GFP/RFP ratio fluorescence, overnight; percent of plate control window, DMSO zero; GFP/RFP ratio change, % at 20 µM; 360,000 tested, 0.061% active; AID 651647;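 active = GFP/RFP ratio change of at least 30% with cell ATP level not reduced by more than half and red fluorescence within 50% of control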; note: strong numbers were not always called active
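Material – HT1080 RFP-PRO-GFP cells · Control set – DMSO wells and RFP-L50D-GFP cells · Incubation – overnight cell settling, then overnight compound exposure, 37 °C, 5% CO2 · Compound dosing – single-point 20 µM compound, 1% DMSO · Read-out – GFP/RFP fluorescence ratio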
Rce1 inhib = blocks yeast Ras-converting enzyme; Q03530; yeast membranes, quenched prenylated peptide cleavage fluorescence; calls only; 290,000 tested, 0.27% active;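 active = fall in fluorescence gain of 50% or more versus controls, with final raw signal at or below 3038400; inconclusive = same 50% fall but final raw signal above 3038400; inactive = fall in fluorescence gain under 50%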;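 note: plate controls were neutral control wells for no effect and wells lacking membranes for full effect; tested at 10 µM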
Target sequence (Q03530 whole entry, looked up): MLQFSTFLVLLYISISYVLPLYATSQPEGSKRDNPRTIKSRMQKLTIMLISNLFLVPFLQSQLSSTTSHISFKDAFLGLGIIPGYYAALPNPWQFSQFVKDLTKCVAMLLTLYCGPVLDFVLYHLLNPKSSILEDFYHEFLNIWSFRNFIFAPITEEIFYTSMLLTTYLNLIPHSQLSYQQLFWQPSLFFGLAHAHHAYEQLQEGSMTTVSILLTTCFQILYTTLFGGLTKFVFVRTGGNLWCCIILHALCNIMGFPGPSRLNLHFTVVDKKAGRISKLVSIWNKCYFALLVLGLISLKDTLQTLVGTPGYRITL
eIF4H inh retest = also measured in eIF4H inh; calls as there; inhibition, %; compound at 20 µM; confirmation average;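 mean of two retest wells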
PABP FP inh retest = second read-out of PABP FP inh, no call of its own (marks repeat the call); inhibition, %; compound at 20 µM; confirmation repeats;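 mean of two retest wells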
MT1-MMP act inh RFP = second read-out of MT1-MMP act inh, no call of its own (marks repeat the call); RFP signal change, %; measured here: RFP expression control read;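 0 = vehicle wells; hits needed this value within 50% of zero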
The depositor's hits bear a star; i = inactive; ? = inconclusive; nt = not tested or not shown.

SMILES	PABP FP inh	HIV Env fusion	CSC inhib	eIF4H inh	Yeast UUG start	MT1-MMP act inh	MT1-MMP act inh RFP	Rce1 inhib	others
COc1cccc(CC(=O)n2nc(N)c3cc4ccc(OC)cc4nc32)c1	-1.5	-131.6	29.3	-3.3	-18.9	0.8	-0.3	i
COc1cccc(CNC(=S)Nc2ccc3c(c2)c(=O)n(C)n3Cc2csc(C)n2)c1	nt	20.4	nt	nt	-24.5	1.0	-2.8	nt
Cc1cc(OCC(=O)NCC2CCC(C(=O)O)CC2)c2c(C)c(Cc3ccccc3)c(=O)oc2c1 (stereo unspecified)	3.9	nt	-7.8	-0.4	-7.8	7.4	-5.1	i
CC(C(=O)N(C1CC1)C1(C(=O)Nc2ccccc2)CCCC1)N1C(=O)c2ccccc2C1=O (stereo unspecified)	-6.0	nt	3.5	5.2	-5.0	-2.9	-3.2	i
CC1CN(C(=O)c2cccc(S(=O)(=O)Nc3ccccc3Cl)c2)CC(C)O1 (stereo unspecified)	-3.4	12.4	5.7	-7.2	-5.2	1.2	0.7	i
CC(C)NC(=O)NC(=O)COc1ccc(Br)cc1Br	-9.4	-125.1	-14.9	1.0	nt	4.7	3.3	i
COc1ccc(Nc2oc(COc3cccc(C)c3)nc2C#N)cc1	-4.5	39.0	-7.6	4.7	-17.5	5.7	-5.9	i
Cc1ccc(C)c(OCc2nnc(N)s2)c1	-12.6	nt	-5.4	-5.3	nt	1.6	2.3	i
CC(C)c1c(C(=O)N/N=C/c2ccc(OCc3ccccc3)cc2)nnn1-c1nonc1N	2.0	-3.1	-1.1	-13.7	2.9	1.4	-5.9	i
O=[N+]([O-])c1cccc(Nc2nc(Cl)nc(Cl)n2)c1	3.9	0.5	-7.9	-4.0	nt	2.5	6.3	i
O=C(NCCCN1CCc2ccccc2C1)Nc1ccc(Cl)cc1	-6.0	78.7*	nt	-2.5	5.5	5.5	0.2	i
O=C1NCCN(Cc2ccoc2)C1CC(=O)N(CCO)Cc1ccccc1 (stereo unspecified)	2.8	13.7	-5.4	13.5	-11.5	4.5	1.5	i
COc1ccc(CCC(=O)N2CCN(S(=O)(=O)c3cccs3)CC2)cc1	nt	19.5	nt	nt	-8.4	-3.6	1.6	nt
c1ccc(-c2cnc(-c3cccnc3)o2)cc1	-0.5	nt	-15.0	-6.7	-2.4	3.9	5.1	nt
CCCNC(=O)CCn1cc(-c2ccc(OC)cc2)nc1CCN	nt	-11.2	-13.4	nt	-12.3	1.7	3.3	i
O=C1C2CCC(C(O)C2)N1Cc1ccccc1 (stereo unspecified)	3.0	-3.3	-2.4	-5.9	-20.5	2.0	3.2	i
Cn1c(=O)c2nc(SCc3ccccc3)n(C)c2n(C)c1=O	nt	-16.6	nt	nt	-18.0	-2.4	3.7	nt
O=C(CNC(=O)/C=C/c1ccco1)N=Nc1c(O)[nH]c2ccccc12	57.2*	2.6	-8.2	88.0*	-6.2	2.4	4.3	i
COc1ccc(NC(=O)c2ccco2)cc1NC(=O)c1cccnc1	-7.7	-24.2	-5.4	-11.7	-20.2	-2.7	2.4	i
COCCN(C(=O)CSc1nnc(C)n1Cc1ccccc1)c1c(N)n(CC(C)C)c(=O)[nH]c1=O	-11.5	8.5	-15.1	6.6	nt	-1.2	4.4	i
Cc1csc(=O)n1CC(=O)OCC(=O)NNC(=O)c1ccc([N+](=O)[O-])cc1	nt	nt	-7.2	nt	nt	-2.4	-1.6	i
N#Cc1cc2c(=O)n3ccccc3nc2n(CCCn2ccnc2)c1=N	-0.4	-22.5	-12.8	-3.0	-17.9	7.1	2.5	i
CCNC(=O)COC(=O)c1cc(C)n(-c2ccccc2)c1C	-7.9	-0.5	-11.4	3.1	nt	0.8	1.7	i
COc1ccc([C@H]2CC(=O)C=C(c3ccc(-c4ccccc4)cc3)C2)cc1OC	nt	28.8	1.3	nt	-18.7	-3.0	-9.4	nt
Cn1c(=O)c2c(nc(SCc3ccc(C(=O)O)cc3)n2C)n(C)c1=O	-3.6	-3.0	3.8	-3.1	-11.2	-3.9	1.2	i

Continued, overlapping the part above by two compounds.
SMILES	PABP FP inh	HIV Env fusion	CSC inhib	eIF4H inh	Yeast UUG start	MT1-MMP act inh	MT1-MMP act inh RFP	Rce1 inhib	others
COc1ccc([C@H]2CC(=O)C=C(c3ccc(-c4ccccc4)cc3)C2)cc1OC	nt	28.8	1.3	nt	-18.7	-3.0	-9.4	nt
Cn1c(=O)c2c(nc(SCc3ccc(C(=O)O)cc3)n2C)n(C)c1=O	-3.6	-3.0	3.8	-3.1	-11.2	-3.9	1.2	i
CCOC(=O)/C=c1\s/c(=C\c2ccc3cc(OC)ccc3c2)c(=O)n1CC(=O)NCc1ccc2c(c1)OCO2	?	11.6	9.3	?	nt	-39.3	5.6	i
O=C(NCCN1CCNCC1)c1ccccc1O	nt	-4.7	-1.8	nt	-6.1	-0.5	3.3	i
CCCCOC(=O)CSc1nc2c(cc1C#N)C(=O)CC(C)(C)C2	14.9	-15.8	20.8	-2.7	-12.0	0.5	1.2	i
Cc1cccc(C)c1NS(=O)(=O)c1c(C(=O)N2CCCCC2)c(C)n(C)c1C	-8.4	20.7	3.8	-5.4	-12.4	-4.2	-4.4	i
CN(C)CCCOC(=O)c1ccccc1	16.7	nt	-3.8	-5.9	-16.8	0.7	1.5	i
COCc1c(C(=O)OCC(=O)N2c3ccccc3CC2C)oc2ccccc12 (stereo unspecified)	-2.1	-17.5	-1.1	-1.0	4.8	-5.1	1.6	i
Cc1cccc(NC(=O)CCC(=O)NCCO)c1	-2.3	30.0	-11.3	-8.8	-8.1	0.6	4.1	i
C[C@@H]1Cn2cnc(C(=O)Nc3cccc(Cl)c3)c2C(=O)N1	nt	-23.9	nt	nt	-11.9	-16.3	-19.7	nt
CN1CCN(C(=S)c2cn(CCOc3ccccc3F)c3ccccc23)CC1	-0.6	12.1	-1.2	-5.2	-14.0	4.9	3.0	i
CC(C)CNC(=O)c1cccc(NC(=O)C2CCCO2)c1 (stereo unspecified)	2.5	nt	-5.4	-5.6	-19.3	0.4	7.4	i
COc1ccc(Nc2cc(C(=O)NCCCN3CCN(C)CC3)c3ccccc3n2)cc1OC	-6.4	16.9	-8.4	-1.6	-14.6	5.4	14.6	i
O=C(Nc1ccccc1)c1ccc(N2CCN(c3ccccn3)CC2)c(S(=O)(=O)N2CCOCC2)c1	-4.9	-78.3	-6.0	-10.5	-0.9	1.3	-4.8	i
COC(=O)CN(c1ccccc1OC)S(=O)(=O)c1ccccc1	2.4	-49.1	nt	-2.6	-6.9	4.3	3.5	i
COc1cccc(CN(C)CC(=O)NCc2ccccc2Cl)c1OC	-12.3	-6.2	-0.7	-2.7	nt	-2.5	-0.2	i
Cc1oc(-c2ccc(-c3ccccc3)cc2)nc1CN1CCN(CC(=O)N(C)C)CC1	-5.3	-58.3	-11.9	2.1	nt	3.9	2.2	i
COC(=O)c1sccc1NC(=O)Cn1nnc(-c2ccccc2C)n1	5.5	16.2	2.5	-8.1	nt	-2.0	-4.5	i
COc1ccc(C(=O)NC2(C(F)(F)F)C(=O)Nc3c2c(=O)[nH]c(=O)n3CCc2ccc(OC)c(OC)c2)cc1 (stereo unspecified)	-14.5	-18.8	-2.6	-10.0	6.4	0.9	1.7	i
CCOc1ccc(CN2CCN(Cc3cccc4c3OCO4)CC2CCO)cc1 (stereo unspecified)	-6.3	-3.8	3.8	4.5	-4.5	2.6	1.1	i
CCN(CC)c1ccc(N=Cc2ccc([N+](=O)[O-])o2)cc1	1.4*	29.0	23.4	71.5*	nt	5.6	9.2	i	eIF4H inh retest=98.6*;PABP FP inh retest=73.3*
Cn1ccc2c(-c3ccc(C(C)(C)C)cc3)cc3c(c21)C1CCC3O1 (stereo unspecified)	nt	8.0	nt	nt	-9.6	-3.2	-0.7	nt
CCc1cc2cc3c(cc2nc1SCC(=O)Nc1nccs1)OCO3	-15.5	-39.9	-7.9	-10.1	10.4	-8.8	-0.4	i
CCCc1nc2sc3c(=O)n(N)cnc3c2c2c1CCCC2	-2.0	-2.1	-0.9	-7.4	nt	2.6	0.4	i
CC(C)COP(=O)(c1ccc(N(C)C)cc1)C(O)c1cccnc1 (stereo unspecified)	-6.5	-7.1	1.2	-2.2	nt	-2.6	2.9	i
CCN(C(=O)CSc1cccc[n+]1[O-])c1ccccc1	nt	0.7	7.0	nt	-8.4	-7.4	5.5	nt
CC(C)C[C@H](NC(=O)N1CC(=O)Nc2ccccc21)C(=O)N[C@H](Cc1ccccc1)C(=O)O	-4.7	nt	-7.6	1.1	-19.2	-1.3	-0.6	nt
Going on with the list.
SMILES	PABP FP inh	HIV Env fusion	CSC inhib	eIF4H inh	Yeast UUG start	MT1-MMP act inh	MT1-MMP act inh RFP	Rce1 inhib	others
Cc1sc2nc(CN3CCCC3)nc(N3CCN(S(=O)(=O)c4ccccc4)CC3)c2c1C	nt	-26.4	nt	nt	-2.2	-3.5	3.0	nt
Cc1ccc(C(=O)Nc2ncc3c(n2)CC(c2ccco2)CC3=O)cc1 (stereo unspecified)	21.7	-3.5	21.0	11.2	-15.6	-4.4	1.5	i
Cc1ccc(CC(=O)N2CCOCC2)cc1	0.7	17.8	-5.1	-5.6	-16.4	-2.6	2.4	i
COc1ccc(NC(=O)c2ccc(C)cc2Cl)c([N+](=O)[O-])c1	-4.2	nt	2.4	-4.2	4.5	23.7	-4.5	i
C[C@H](NC(=O)c1nc[nH]c1C(=O)NCCCCCNC(=O)OC(C)(C)C)c1ccccc1	nt	6.2	-6.4	nt	14.7	4.2	-23.5	nt
Cn1c(=O)c2c(-c3cccc(Br)c3)c(C#N)c(N)nc2n(C)c1=O	6.3	-2.8	-19.2	-3.8	1.2	-4.6	-3.5	i
CCOC(=O)c1cc2c(n(-c3ccc(Cl)cc3)c1=O)CCCC2=O	-2.2	16.5	1.5	9.9	nt	0.7	4.0	i
CC(C)(C)C(=O)Cn1c(=N)n(Cc2ccccc2Cl)c2ccccc21	1.3	19.7	nt	-10.2	-5.6	-1.8	-5.1	i
NC(N)=N/N=C/c1ccc(Br)cc1	-14.8	7.2	38.7	3.4	nt	-1.2	-13.2	i
Cc1cc(C)cc(OCC(=O)NNC(=O)CN2C(=O)c3ccccc3C2=O)c1	-3.4	7.3	-4.6	6.1	-10.3	1.3	-0.7	nt
CCN1CCN(c2cc(=O)n(Cc3ccc(F)cc3)c(=O)[nH]2)CC1	-11.4	1.0	2.0	15.4	-24.8	2.0	3.3	i
Cc1ccccc1NC(=O)c1nc[nH]c1C(=O)NCc1ccccc1	-2.5	nt	1.5	21.3	nt	1.0	-8.7	i
O=C(Nc1ncnc2sc3c(c12)CCCC3)c1ccncc1	-0.6	4.4	-10.0	-1.1	-16.0	1.4	3.4	i
CS(=O)(=O)N1CCc2cc(S(=O)(=O)N3CCN(Cc4ccc5c(c4)OCO5)CC3)ccc21	-0.8	41.3	0.6	5.3	-8.7	6.8	3.3	i
C/C(Cl)=C/CSc1nnc2n(N)c(=O)c3ccccc3n12	-6.8	3.9	-7.9	-1.3	-18.4	4.7	0.8	i
CC1CN(C(=S)NC(=O)c2ccccc2)CC(C)O1 (stereo unspecified)	-2.6	nt	-3.1	-0.6	-2.4	0.7	2.0	i
Cc1ccc(SCCNC(=O)c2ccc(C)c(S(=O)(=O)Nc3cccc(C)c3)c2)cc1	2.1	nt	25.3	-3.9	-8.8	-2.3	-6.5	i
Cc1cccc(NC(=O)Cn2cc([N+](=O)[O-])cn2)n1	24.8	7.1	4.4	-4.4	-18.6	0.6	2.3	i
